Screening results as filed in PubChem BioAssay.
Sa RN4220 lethal – kills Staphylococcus aureus RN4220 | S. aureus RN4220 growth, OD600, 16 h | inhibition, % (test concentration not listed) | actives 0.33% (n = 330,000);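 active = z-score of -3 or lower and OD600 up to 0.18 on both plates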;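 note: plate controls were untreated cells for no effect and reference antibiotic for full effect; stock transfer was 100 nL into about 80 µL; one replicate is shown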
Bead autofluor – flagged as autofluorescent in microsphere protease counterscreen; compound autofluorescence counterscreen, microsphere flow cytometry; hits give high values; fluorescence intensity (test concentration not listed); actives 3.1% (n = 360,000); AID 624483;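 active = at least 3 SD above the mean of all compounds, about 16000 in these data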;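 note: 100 nL of 1 mM stock went into each well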
PrP UTR inh – suppresses PrP 5' UTR mRNA reporter expression | cell-based PrP 5' UTR mRNA reporter, plate reader | inhibition, % (no concentration beside the values) | actives 0.35% (n = 340,000);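 active = every replicate at 50% or more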;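 note: 0 = median of the neutral control wells; tested in H4 reporter cells; numbers are from one replicate; inactives centre near -14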
ugtP null kill – growth inhibition of S. aureus ugtP deletion strain | S. aureus RN4220 ugtP deletion, OD600 growth, 16 h; some inactives read as strong as hits | AID 1259309 | actives 0.54% (n = 330,000) | growth inhibition, % (no concentration beside the values);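 active = z-score under -3 and OD600 up to 0.15 on both plates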;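 note: plate controls were untreated wells for no effect and antibiotic for full effect; wells of about 80 µL received 100 nL stock; the first replicate is given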
Mtb hypoxia rep – inhibitors of hypoxia-regulated fluorescent reporter in Mycobacterium tuberculosis. M. tuberculosis hypoxia-regulated fluorescent reporter, fluorescence. fluorescence inhibition, % (concentration not given with the values). actives 0.1% (n = 300,000);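 active = 35 to 45% if threefold the growth effect, above 45% if 1.5-fold the growth effect; inactive = the rest, general growth blockers included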;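 note: wells of about 50 µL received 100 nL stock; 0% = vehicle wells and 100% = reference inhibitor wells; whole bacteria with a GFP reporter of the hypoxia response; strong numbers were not always called active; many hits fall short of the cut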
BJeLR lethal – kills HRASV12-expressing BJeLR cells | inhibition, % (no concentration beside the values) | actives 0.17% (n = 300,000) | BJeLR (HRASV12) viability, CellTiter-Glo ATP luminescence, 48 h; reference of the scale not given here | AID 1554;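 active = replicate mean above 50%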;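 note: 50 nL library stock added to about 25 µL; numbers are from one replicate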
Mtb hypoxia rep growth – further read-out of Mtb hypoxia rep, marked with its call; growth inhibition, %; measured here: M. tuberculosis growth (absorbance);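 0% = vehicle and 100% = reference antibiotic; read after six days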
* hit, by the source's call; . = no result given.

SMILES | Sa RN4220 lethal | Bead autofluor | PrP UTR inh | ugtP null kill | Mtb hypoxia rep | Mtb hypoxia rep growth | BJeLR lethal
CCc1ccc(N(CC(=O)NC2CCCCC2)C(=O)CCC(=O)Nc2ccccn2)cc1 | 3.0 | 6116 | -11 | 3 | 9 | -1 | 0
CC(=O)N1CCN(S(=O)(=O)c2ccccc2)C1c1ccccc1 (stereo not drawn) | 2.6 | 4453 | -27 | 5 | 1 | 2 | 11
CC(=O)N1CCC2(CC1)CC(=NNC(=S)Nc1ccccc1F)c1cc(O)ccc1O2 | 9.1 | . | . | 8 | 1 | 20 | .
COc1ccc(NC(=O)c2ccc(C#CC(C)(C)O)cc2)cc1 | 7.5 | 2510 | -44 | -2 | 0 | 8 | 11
COc1ccc(NC(=O)COC(=O)CCNS(=O)(=O)c2ccc(Cl)cc2)cc1 | 2.8 | 3327 | -21 | -1 | -1 | -1 | 11
COCCCNC(=O)c1ccccc1N(Cc1ccccc1)S(=O)(=O)c1ccccc1 | 6.1 | 3482 | -11 | 10 | 2 | 2 | -9
Cc1ccc2[nH]c3c(c2c1)CCN1C(=O)OC(C)(C)C31C (stereo not drawn) | -0.9 | 3363 | -4 | 1 | 6 | 7 | -14
COc1ccccc1NC(=O)COC(=O)CNC(=O)C1CCCCC1 | 3.9 | 3304 | -20 | 9 | 7 | 4 | .
Cn1c(C(=O)NN)cc2cc(OCc3ccccc3)ccc21 | 4.8 | . | . | 2 | -2 | 1 | -5
O=S(=O)(c1ccc(Cl)cc1)c1nc(-c2ccco2)oc1N1CCCCC1 | 0.1 | 5719 | -8 | -4 | -8 | -1 | -12
O=C(COC(=O)c1ccc(Br)o1)Nc1ccc2c(c1)OCCO2 | 4.9 | 6143 | 4 | 5 | 3 | 1 | .
O=C(/C=C/c1ccccc1)Nc1ccc(S(=O)(=O)N2CCOCC2)cc1 | 0.3 | 5859 | 0 | 1 | -3 | 12 | 7
Cc1ccc(NC(=O)CCNC(=O)c2ccc(Br)cc2)cc1S(=O)(=O)N1CCOCC1 | 6.1 | 5954 | -7 | 2 | 7 | 13 | 4
COC(=O)c1sc2ccccc2c1NC(=O)c1coc2ccccc2c1=O | 2.7 | 2123 | -15 | 3 | 17 | 0 | -9
CCCC(=O)c1cc2c(cc1NC(=O)c1cccs1)OCCO2 | 0.5 | 3312 | -15 | 1 | . | . | 3
CCOc1ccc(CCNC(=O)CN2C(=O)NC3(CCCCC3)C2=O)cc1OCC | 3.3 | 5378 | -4 | 4 | 6 | 0 | 1
O=C1CCC([N+](=O)[O-])C(c2ccccc2Br)N1 (stereo not drawn) | 4.7 | 3639 | -6 | 10 | -1 | 6 | -4
CCCCN1C(=O)C(=O)NCC1C(C)CC (stereo not drawn) | 6.3 | . | . | 5 | 22 | 7 | .
CS(=O)(=O)c1ccccc1COC(=O)Nc1ccc(Cl)cc1 | 5.0 | 9979 | -27 | -14 | 12 | 2 | -2
Cc1[nH]c2ccccc2c1C=NNC(=O)CNC(=O)c1cccs1 | 2.5 | . | . | 5 | 8 | 11 | .
O=C(CSc1nc2ccc([N+](=O)[O-])cc2s1)NC1CCS(=O)(=O)C1 (stereo not drawn) | 5.1 | 4092 | -28 | 3 | -1 | 12 | -5
Nc1nonc1-c1noc(CCCCCN2C(=O)c3ccccc3C2=O)n1 | 2.1 | 2473 | -16 | 3 | . | . | .
Cc1ccc(C)c(S(=O)(=O)N2CCC3(CC2)OCCO3)c1 | -1.8 | 5748 | -10 | -6 | 4 | 12 | -8
O=C(CNC(=O)c1cccc(Br)c1)NN=Cc1cccnc1 | 1.2 | . | . | 4 | 1 | 1 | .
COc1ccccc1N1C(=O)CCC1(C#N)c1ccc(Br)cc1 (stereo not drawn) | 3.6 | 5927 | -25 | -1 | 8 | 17 | -4
COc1ccc(-c2nc3c([nH]2)c(=O)n(C)c(=O)n3C)c(OC)c1 | 4.9 | 10206 | . | 4 | -2 | 2 | -15
O=S(=O)(c1cccs1)N1CN(Cc2ccc(F)cc2)c2nc3ccccc3nc21 | 5.3 | 3170 | -20 | 1 | 0 | 7 | .
CC(=O)Nc1ccc(S(=O)(=O)NC2=NCN(C)CN2)cc1 | -2.1 | 2542 | -21 | 8 | -1 | 0 | -5
O=C(OCC(=O)N1CCc2ccccc21)c1ccccc1[N+](=O)[O-] | 3.0 | 3861 | -35 | 4 | 1 | 0 | .
COc1cc(/C=N/NC(N)=O)ccc1OCC(=O)Nc1cc(C)c(C)cc1Br | . | 4067 | -8 | . | . | . | 2
CCOC(=O)CSc1nnc(CNC(=O)c2cccs2)n1-c1cc(C)ccc1C | 3.2 | 10828 | -11 | -1 | 20 | 21 | .
O=C(CNS(=O)(=O)c1cccc(F)c1)OCC(=O)N1CCCC1=O | 2.6 | 4132 | -24 | 5 | 6 | -5 | .
Cc1ccc(C(=O)NCC(=O)NCC(c2cccs2)N2CCOCC2)cc1 (stereo not drawn) | 3.0 | 5418 | -13 | 5 | 6 | 1 | .
Cc1cc(C)n2nc(C(=O)OCC(=O)NCc3ccc(Cl)cc3)nc2n1 | 5.4 | 3801 | -28 | 1 | -6 | 4 | .
COc1ccc(C(=O)CN2CC(C)SC2=Nc2ccc(Cl)cc2)cc1 (stereo not drawn) | 2.9 | 6879 | -12 | -2 | 6 | 9 | 2
COc1ccc(Cl)c2c1[nH]c1nc(SCc3ccccn3)nnc12 | 4.7 | 3707 | -102 | 5 | -8 | 8 | -6
Cc1nn(Cc2nnc(SCC(=O)Nc3ccc(Cl)cc3)n2C)c(C)c1[N+](=O)[O-] | 2.5 | 3876 | -16 | 7 | 3 | 2 | -2
Cc1cccc(C(=O)OCC(=O)N(C)C(c2ccccc2)c2ccccc2)c1[N+](=O)[O-] | 18 | 9283 | -23 | 16 | 8 | 0 | .
COc1ccc(/C=C(\NC(=O)c2ccc([N+](=O)[O-])cc2)C(=O)N2CCOCC2)cc1 | 3.3 | 2558 | -10 | 1 | -6 | 11 | 1
CCOC(=O)N1CCC(NC(=O)c2ccc(NC(=O)C3CCCO3)cc2)CC1 (stereo not drawn) | 8.0 | 4119 | -7 | 5 | 18 | 16 | 3
O=C(Nc1nnc(C2CC2)s1)C1Cc2ccccc2CN1C(=O)c1ccco1 (stereo not drawn) | 0.1 | 2396 | -14 | 2 | -7 | 2 | -8
CCOc1ccc(NC(=O)c2c(O)[nH]c(=O)[nH]c2=O)cc1 | 3.7 | 4259 | -6 | 3 | 18 | 10 | 14
CCc1c(C(=O)Nc2ccncc2)csc1C | 2.5 | 23043* | 6 | -5 | -4 | 7 | -2
COc1ccc(S(=O)(=O)Nc2nncs2)cc1 | 5.4 | 3319 | 27 | 8 | 0 | -3 | 7
CCCCc1nnc(NC(=O)CSCc2cc(=O)n3c(C)csc3n2)s1 | 1.9 | 5282 | -32 | 9 | 8 | 5 | 5
O=C(NCc1ccccc1)C1C2C=CC3(CN(Cc4cccnc4)C(=O)C13)O2 (stereo not drawn) | 2.0 | 19359* | -18 | 3 | -1 | 1 | -13
COC(=O)C1=C(c2cc3ccccc3o2)CC2CCC1N2C(=O)NCc1ccc(C(F)(F)F)cc1 (stereo not drawn) | -0.2 | . | . | 16 | 13 | 8 | .
COc1ccc(CNC(=O)[C@H](C)NC(=O)C2CCN(C(=O)[C@@H](N)Cc3ccccc3)CC2)cc1 | 0.6 | 5348 | -7 | 1 | . | . | -3
CCn1c(=O)c(C(=O)Nc2ncccc2O)c(O)c2ccccc21 | 8.7 | 4250 | -32 | 12 | 14 | 2 | -4
COC(=O)c1c(NC(=O)c2cccs2)sc2c1CCC(C)C2 (stereo not drawn) | -5.5 | 3302 | -62 | -6 | 11 | 9 | -9

Some of the entries so far, in CSV form.
canonical_smiles,Sa RN4220 lethal,Bead autofluor,PrP UTR inh,ugtP null kill,Mtb hypoxia rep,Mtb hypoxia rep growth,BJeLR lethal
CCn1c(=O)c(C(=O)Nc2ncccc2O)c(O)c2ccccc21,8.7,4250,-32,12,14,2,-4
COC(=O)c1c(NC(=O)c2cccs2)sc2c1CCC(C)C2 (stereo not drawn),-5.5,3302,-62,-6,11,9,-9
CCOc1ccc(NC(=O)c2c(O)[nH]c(=O)[nH]c2=O)cc1,3.7,4259,-6,3,18,10,14
O=C(NCc1ccccc1)C1C2C=CC3(CN(Cc4cccnc4)C(=O)C13)O2 (stereo not drawn),2.0,19359*,-18,3,-1,1,-13

(list continues)
SMILES | Sa RN4220 lethal | Bead autofluor | PrP UTR inh | ugtP null kill | Mtb hypoxia rep | Mtb hypoxia rep growth | BJeLR lethal
Cc1ccc(NC(=O)CCOc2ccccc2C)cc1F | -1.7 | 4423 | -26 | -2 | 7 | 7 | -1
O=C(CS(=O)(=O)c1ccccc1)Nc1nc(-c2ccccc2)cs1 | 0.6 | 2378 | -18 | 2 | . | . | -11
CCOc1ccccc1OCCCCCc1c(C)n[nH]c1C | 7.8 | 9872 | 13 | -11 | -1 | 4 | 6
COc1ccc(Cl)cc1NC(=O)C(C)Sc1n[nH]c(N)n1 (stereo not drawn) | 0.8 | 2474 | -11 | 4 | . | . | -26
COC(=O)C1=C(C)N(Cc2ccc(OC)cc2)C(=O)C1 | -0.9 | 20549* | -30 | -5 | -2 | -8 | -1
COc1ccc(-n2nc(C(=O)NCC(=O)N3CCN(Cc4ccccc4)CC3)c3ccccc3c2=O)cc1OC | 0.9 | 3801 | -18 | 7 | 7 | 7 | -1
CCN1CCN(CCCNC(=O)c2ccccc2NC(=O)C2=C(C)OCCS2)CC1 | 0.4 | 5770 | -9 | 6 | 9 | 14 | 2
O=C(CN1CCN(S(=O)(=O)c2ccc(Br)cc2)CC1)N/N=C/c1cccs1 | . | 2462 | -12 | . | . | . | -3
CN(C)S(=O)(=O)c1cccc(NC(=O)COC(=O)CCSc2ccc(Cl)cc2)c1 | 3.8 | 2569 | -20 | -2 | -5 | -9 | -8
CCOc1ccccc1OCC(=O)Nc1ccc(OC)c(S(=O)(=O)N2CCCCC2)c1 | 3.7 | 7505 | -16 | -3 | -3 | 0 | 7
Cc1nc(C(C)NC(=O)c2cc(COc3ccc(F)c(F)c3)on2)cs1 (stereo not drawn) | 2.7 | 5861 | -42 | 2 | 9 | 6 | -9
O=C(O)C1CCC(=O)N1C(=O)OCc1ccccc1 (stereo not drawn) | 5.4 | 2963 | -21 | 7 | 7 | 8 | -11
COc1ccc(CCC(=O)NC(C)C2CCCO2)cc1 (stereo not drawn) | -0.7 | 3231 | -5 | 13 | -1 | 3 | 4
COc1cccc(OC(=O)N2CCOCC2)c1 | 1.7 | 4497 | -39 | 10 | 3 | 6 | -3
COc1cccc(NC(=O)NNC(=O)CCc2ccc(O)c(O)c2)c1 | 9.1 | 5352 | 41 | 1 | 8 | 10 | 2
CCCCOCCCNC(=O)/C=C/c1ccccc1Cl | -0.6 | 4014 | -15 | -7 | 12 | 2 | 11
CCc1ccccc1NC(=S)N(CCc1ccncc1)C(C)C | 8.0 | 4208 | . | 10 | 1 | -7 | 6
Cc1ccc(S(=O)(=O)N2CCN(CC(=O)NC(C)c3ccccc3)CC2)cc1 (stereo not drawn) | 3.0 | 7436 | -14 | 2 | 7 | -2 | .
COc1ccccc1-c1c(C#N)c(SCC(=O)N2CCCC2)nc(C)c1C(N)=O | -16 | . | . | -6 | 4 | 7 | -1
C/C(Cc1ccccc1)=N/NC(=O)CCCC(=O)N/N=C(/C)Cc1ccccc1 | . | 2247 | -16 | . | . | . | -6
Nc1c(C(=O)Nc2ccc(Cl)c(C(=O)O)c2)sc2nc3c(cc12)CCCC3 | 2.9 | 5074 | -2 | -2 | 10 | 2 | 1
O=C(CSc1nc2cc(Cl)ccc2o1)Nc1ccc(N2CCOCC2)cc1 | -1.3 | 10758 | -69 | -5 | 6 | 15 | 0
NC(Cc1ccc(O)cc1)c1nnc(C(CC(=O)O)NC(=O)C2CCNCC2)o1 (stereo not drawn) | 4.0 | . | . | -2 | 1 | -3 | .
Cc1ccc(C(C)C)c(OCC#CCN2CCOCC2)c1 | 9.6 | 3248 | 0 | 9 | 5 | 1 | -9
Cc1noc(C(=O)N2CC3(C)CC2CC(C)(C)C3)c1Cl (stereo not drawn) | 4.9 | 4331 | 1 | -5 | 12 | 7 | -8
O=S(=O)(c1cccs1)N1CCN(CC(O)COC2CCCc3ccccc32)CC1 (stereo not drawn) | 4.1 | 4162 | -9 | -4 | . | . | 11

The order is random; 4% or so of the library scored in one or more.
